Env fusion inh – HIV envelope-mediated fusion inhibition. inhibition, % at 12.3 µM. AID 651610. HeLa-JRFL Env/CEM21 cell fusion, luciferase. 360,000 tested, 1.1% active;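 active = mean replicate inhibition score of at least 50 and every replicate individually at or above 50; inconclusive = only one of the two criteria met; inactive = mean below 50 and not all replicates reaching 50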;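 note: 0% = plate neutral controls and 100% = maraviroc near 300 nM; one replicate is shown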
eIF4H FP inh – inhibitors of RNA binding by human eIF4H; eIF4H fluorescence polarization binding assay; inhibition, % at 35 µM; 290,000 tested, 0.94% active; AID 2012;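 active = 50% or more with normal probe brightness, or confirmed in later tests; inconclusive = above 50% with abnormal brightness, or retests that disagree; inactive = below 50% or failed in later tests; about a fifth of its hits are not listed in these tables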;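 note: calls also rest on retests at 20 µM and on dose response follow-up; 0% = protein and probe with vehicle and 100% = probe without protein; strong numbers were not always called active; many hits fall short of the cut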
MT1-MMP act inh – blocks activation of human MT1-MMP. P50281. HT1080 RFP-PRO-GFP cells, GFP/RFP ratio fluorescence, overnight; percent of plate control window, DMSO zero. GFP/RFP ratio change, % at 20 µM. 360,000 tested, 0.061% active;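 active = GFP/RFP ratio change of at least 30% with cell ATP level not reduced by more than half and red fluorescence within 50% of control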; note: strong numbers were not always called active
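Assay system: HT1080 cells carrying an RFP-PRO-GFP reporter | Dosing: Single dose of 20 µM compound, 1% DMSO final | Incubation: Cells overnight before dosing, compound overnight, 37 °C, 5% CO2 | Evaluation: GFP/RFP fluorescence ratio | Control set: DMSO and RFP-L50D-GFP cell wells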
PABP polyA inh – PABP-poly(A) binding inhibition. PABP-poly(A) RNA binding, fluorescence polarization. inhibition, % at 35 µM. P11940. 290,000 tested, 1% active;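 active = 50% or more with normal probe brightness, or confirmed in later tests; inconclusive = above 50% with abnormal brightness, or retests that disagree; inactive = below 50% or failed in later tests; about a fifth of its hits are not listed in these tables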;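 note: calls also rest on retests at 20 µM and on dose response follow-up; controls were probe without protein and protein plus probe with vehicle; some compounds called inactive have numbers as strong as hits; many hits fall short of the cut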
UUG fidelity – alters start codon recognition fidelity in yeast; AID 602363; activity score, % at 18.7 µM; S. cerevisiae UUG-firefly luciferase reporter, luminescence/redox ratio; 350,000 tested, 0.13% active;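 active = replicate mean at a twofold rise or more, about +100% in these data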;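 note: firefly luciferase made from a UUG start codon reports start codon fidelity; reporter light over untreated wells divided by growth signal over untreated wells; some hits fall short of that in this replicate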
CSC inhib – cancer stem cell inhibition. 300,000 tested, 1.1% active. inhibition, % at 7.5 µM. cancer stem cell-like cells viability, luminescence;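 active = mean at 75% or more and at least half the replicates too; inconclusive = mean and replicates disagree; tested in HMLE shEcad cells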;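 note: 0% = median of negative and 100% = median of positive control wells; the first replicate is given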
Rce1 inhib – yeast Ras-converting enzyme inhibition; yeast membranes, quenched prenylated peptide cleavage fluorescence; calls only; Q03530; AID 2563; 290,000 tested, 0.27% active;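 active = fall in fluorescence gain of 50% or more versus controls, with final raw signal at or below 3038400; inconclusive = same 50% fall but final raw signal above 3038400; inactive = fall in fluorescence gain under 50%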;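 note: plate controls were neutral control wells for no effect and wells lacking membranes for full effect; tested at 10 µM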
Target sequence (Q03530 whole entry, looked up): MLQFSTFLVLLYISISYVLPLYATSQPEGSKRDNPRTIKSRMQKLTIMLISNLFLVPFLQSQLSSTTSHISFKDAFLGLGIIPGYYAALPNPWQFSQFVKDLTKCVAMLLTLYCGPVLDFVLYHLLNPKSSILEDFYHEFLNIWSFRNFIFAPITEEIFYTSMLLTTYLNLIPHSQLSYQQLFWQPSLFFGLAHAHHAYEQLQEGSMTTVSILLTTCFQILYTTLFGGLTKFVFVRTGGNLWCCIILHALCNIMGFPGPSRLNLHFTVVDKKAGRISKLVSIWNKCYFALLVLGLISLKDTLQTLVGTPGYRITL
eIF4H FP inh retest – also measured in eIF4H FP inh; calls as there; inhibition, %; compound at 20 µM; confirmation average;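 mean of two retest wells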
PABP polyA inh retest – further read-out of PABP polyA inh, marked with its call; inhibition, %; compound at 20 µM; confirmation repeats;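 mean of two retest wells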
MT1-MMP act inh RFP – second read-out of MT1-MMP act inh, no call of its own (marks repeat the call); RFP signal change, %; measured here: RFP expression control read;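 0 = vehicle wells; hits needed this value within 50% of zero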
* = called active by the depositor; & = joins results of further samples.

`COc1cccc(NC(=O)N(C)C[C@@H]2OCc3cnnn3CCCC(=O)N([C@@H](C)CO)C[C@H]2C)c1` gave Env fusion inh -5, MT1-MMP act inh 4, UUG fidelity -15&14 and MT1-MMP act inh RFP 7.
Screening CCC(=NC(CC)CO)C1=C(O)CC(C)(C)CC1=O (stereo not given) returned eIF4H FP inh -8, MT1-MMP act inh -1, PABP polyA inh 3, UUG fidelity -6, CSC inhib -1, Rce1 inhib inactive and MT1-MMP act inh RFP 1.
For COC(=O)c1c(-c2ccc3ccccc3c2)csc1NC(=O)Cc1ccc(OC)c(OC)c1 the results were eIF4H FP inh 4, MT1-MMP act inh -15, PABP polyA inh -10, UUG fidelity 1, CSC inhib -2, Rce1 inhib inactive and MT1-MMP act inh RFP -26.
CC(C)NS(=O)(=O)c1ccc2c(c1)oc(=O)n2C was read as Env fusion inh 5, eIF4H FP inh 0, MT1-MMP act inh 2, PABP polyA inh -20, UUG fidelity 2, CSC inhib -3, Rce1 inhib inactive and MT1-MMP act inh RFP 6.
Screening Cc1cnc(NC(=O)c2c(O)c3cccc4c3n(c2=O)CCC4)s1 returned eIF4H FP inh -4, PABP polyA inh 0 and Rce1 inhib inactive.
For C#CCSc1nnc(-c2ccc([N+](=O)[O-])cc2)o1 the results were Env fusion inh -13, eIF4H FP inh 7, MT1-MMP act inh 0, PABP polyA inh 0, UUG fidelity -5, CSC inhib 2, Rce1 inhib inactive and MT1-MMP act inh RFP 0.
For Cn1cccc1/C=N/n1cnnc1 the results were Env fusion inh -22, eIF4H FP inh 8, MT1-MMP act inh 1, PABP polyA inh 8, UUG fidelity -6, CSC inhib -16, Rce1 inhib inactive and MT1-MMP act inh RFP 2.
`Cc1nn(Cc2ccc(Cl)cc2)c(C)c1NC(=O)Cn1nc([N+](=O)[O-])c(Cl)c1C` gave eIF4H FP inh -5, MT1-MMP act inh 4, PABP polyA inh -5, UUG fidelity -14, CSC inhib -16, Rce1 inhib inactive and MT1-MMP act inh RFP -2.
Screening Cc1cc(C(=O)N2CCN(c3ncccn3)CC2)c(C)o1 returned Env fusion inh -41, eIF4H FP inh 7, MT1-MMP act inh 8, PABP polyA inh 2, CSC inhib -2, Rce1 inhib inactive and MT1-MMP act inh RFP 0.
`Cc1cnn(CCC(=O)NNC(=S)NCC(C)C)c1` gave Env fusion inh -37, eIF4H FP inh 4, MT1-MMP act inh 4, PABP polyA inh -1, CSC inhib -12, Rce1 inhib inactive and MT1-MMP act inh RFP 6.
CC(C)C(=O)N1CCC2(CC1)Oc1ccc(F)cc1C(=O)C21CC(c2cccnc2)=NO1 (stereo not given) was read as eIF4H FP inh -5, PABP polyA inh 3 and Rce1 inhib inactive.
For COc1ccc(S(=O)(=O)NC(C)c2ccccc2)cc1C(=O)N1CCCCC1 (stereo not given) the results were Env fusion inh 6, eIF4H FP inh -10, MT1-MMP act inh 2, PABP polyA inh -5, UUG fidelity -10, CSC inhib -10, Rce1 inhib inactive and MT1-MMP act inh RFP 1.
For O=C(Cc1c(F)cccc1Cl)N/N=C/c1cccs1 the results were Env fusion inh 14, eIF4H FP inh 2, MT1-MMP act inh 1, PABP polyA inh -4, UUG fidelity -12, CSC inhib -2, Rce1 inhib inactive and MT1-MMP act inh RFP -1.
Cc1ccc(-n2c(SCC(=O)NCc3ccco3)nc3sc4c(c3c2=O)CC(C)(C)SC4)cc1 was read as eIF4H FP inh 14, MT1-MMP act inh -3, PABP polyA inh 0, UUG fidelity -18, CSC inhib -13, Rce1 inhib inactive and MT1-MMP act inh RFP -4.
Screening Cc1ccc2nc(C)c(C(=O)O)cc2c1 returned Env fusion inh -7, eIF4H FP inh 7, MT1-MMP act inh 10, PABP polyA inh 9, UUG fidelity -8, CSC inhib -9, Rce1 inhib inactive and MT1-MMP act inh RFP 7.
Cc1ccc(NC(=O)Cn2nnc3ccccc32)c(C)c1 was read as Env fusion inh 7, eIF4H FP inh -4, MT1-MMP act inh 6, PABP polyA inh -10, CSC inhib -8, Rce1 inhib inactive and MT1-MMP act inh RFP 2.
O=C(Cn1nc(-c2ccccc2)ccc1=O)Nc1ccc(-n2cnnn2)cc1 was read as Env fusion inh 1, eIF4H FP inh -3, MT1-MMP act inh -4, PABP polyA inh 4, UUG fidelity 4, CSC inhib -17, Rce1 inhib inactive and MT1-MMP act inh RFP 0.
Screening COC(=O)c1ccc(COc2ccc3c(c2)CCC3)o1 returned Env fusion inh -29, eIF4H FP inh -1, MT1-MMP act inh 0, PABP polyA inh 4, CSC inhib 2, Rce1 inhib inactive and MT1-MMP act inh RFP -1.
COc1ccc(CN2CCN(C(=O)CCC(=O)Nc3nnc(C(F)(F)F)s3)CC2)cc1F was read as Env fusion inh 1, eIF4H FP inh -10, MT1-MMP act inh 9, PABP polyA inh 3, UUG fidelity 12, CSC inhib -7, Rce1 inhib inactive and MT1-MMP act inh RFP -12.
O=C1CS/C(=N/N=C/c2cccs2)N1 was read as Env fusion inh -86, eIF4H FP inh -10, MT1-MMP act inh -2, PABP polyA inh 1, CSC inhib -11, Rce1 inhib inactive and MT1-MMP act inh RFP 2.
Screening COc1cc(C(=O)NCCOc2cc(C)ccc2C(C)C)cc(OC)c1OC returned Env fusion inh 8, eIF4H FP inh -10, MT1-MMP act inh -6, PABP polyA inh -1, UUG fidelity -2, CSC inhib -4, Rce1 inhib inactive and MT1-MMP act inh RFP -25.
Cc1cc(Cl)ccc1OC(C)C(=O)NNC(=O)C1CCCCC1C(=O)O (stereo not given) was read as Env fusion inh 10, eIF4H FP inh -8, MT1-MMP act inh 3, PABP polyA inh 2, UUG fidelity -19, CSC inhib -1, Rce1 inhib inactive and MT1-MMP act inh RFP 3.
For C[C@H](NC(=O)C1CCN(S(=O)(=O)c2ccccc2)CC1)C(=O)NCc1ccccc1 the results were Env fusion inh 2, eIF4H FP inh -10, MT1-MMP act inh -2, PABP polyA inh 0, UUG fidelity -16, CSC inhib 9, Rce1 inhib inactive and MT1-MMP act inh RFP 5.
For Cn1nc(/C=C/c2ccccc2)ccc1=O the results were Env fusion inh -19, eIF4H FP inh -10, MT1-MMP act inh 4, PABP polyA inh -3, UUG fidelity -4, CSC inhib 9, Rce1 inhib inactive and MT1-MMP act inh RFP 3.
Screening COc1ccc(S(=O)(=O)N(C)C)cc1NC(=O)CN1CCN(C(=O)C2CC2)CC1 returned Env fusion inh -10, MT1-MMP act inh -1, UUG fidelity -16, CSC inhib 6 and MT1-MMP act inh RFP -5.
`CC(Oc1ccc2c3c(c(=O)oc2c1)CCC3)C(=O)NCc1cccnc1` (stereo not given) gave Env fusion inh -11, eIF4H FP inh -13, MT1-MMP act inh 0, PABP polyA inh -12, CSC inhib -24, Rce1 inhib inactive and MT1-MMP act inh RFP 0.
N/C(CC(=O)NC1CCCCC1)=N\OCC(=O)Nc1ccc(Cl)c(Cl)c1 was read as Env fusion inh 22, eIF4H FP inh 7, MT1-MMP act inh -8, PABP polyA inh 14, UUG fidelity 0, CSC inhib 13, Rce1 inhib inactive and MT1-MMP act inh RFP -3.
`NC(=O)c1cc2ccncc2c2ccccc12` gave Env fusion inh 43, eIF4H FP inh -5, MT1-MMP act inh -23, PABP polyA inh 2, UUG fidelity -5, CSC inhib -4, Rce1 inhib inactive and MT1-MMP act inh RFP -12.
COc1ccccc1C(=O)Nc1c2c(nn1-c1cccc(C)c1C)CS(=O)(=O)C2 was read as Env fusion inh -84, eIF4H FP inh -13, MT1-MMP act inh -4, PABP polyA inh -13, UUG fidelity -2, CSC inhib 2, Rce1 inhib inactive and MT1-MMP act inh RFP -6.
Cc1cc(Nc2ccc(Cl)cc2)n2ncnc2n1 was read as Env fusion inh 1, eIF4H FP inh -5, MT1-MMP act inh 4, PABP polyA inh 2, UUG fidelity -23, CSC inhib -12, Rce1 inhib inactive and MT1-MMP act inh RFP 5.
Screening CCC(C(=O)N1CCCC1)n1nc(C)c2c(C)n(-c3ccccc3)nc2c1=O (stereo not given) returned Env fusion inh 3, eIF4H FP inh -6, MT1-MMP act inh 0, PABP polyA inh 2, UUG fidelity -16, CSC inhib -1, Rce1 inhib inactive and MT1-MMP act inh RFP 0.
For O=c1oc2cc(S(=O)(=O)NCCCO)ccc2c2ccc(S(=O)(=O)NCCCO)cc12 the results were Env fusion inh -4, eIF4H FP inh -4, MT1-MMP act inh 5, PABP polyA inh 6, CSC inhib -4, Rce1 inhib inactive and MT1-MMP act inh RFP 2.
COc1ccc(-c2cccc(C(=O)Nc3ccc(C)cc3)c2)cc1 was read as Env fusion inh -4, eIF4H FP inh -4, MT1-MMP act inh 5, PABP polyA inh -4, UUG fidelity 3, Rce1 inhib inactive and MT1-MMP act inh RFP 2.
CC1CC(=O)Nc2ccccc2N1C(=O)COc1cc(Cl)ccc1Cl (stereo not given) was read as MT1-MMP act inh -3, UUG fidelity -13, CSC inhib -16 and MT1-MMP act inh RFP -5.
COc1ccc(C(=O)NCC(=O)OCC(=O)N2CC(C)OC(C)C2)cc1OC (stereo not given) was read as Env fusion inh -32, MT1-MMP act inh -1, UUG fidelity -4, CSC inhib 0 and MT1-MMP act inh RFP 4.
Cc1ccc(S(=O)(=O)N2CCOC2CNC(=O)C(=O)NCc2ccccn2)cc1 (stereo not given) was read as Env fusion inh -2, eIF4H FP inh -4, MT1-MMP act inh 1, PABP polyA inh 0, UUG fidelity -22, CSC inhib -4, Rce1 inhib inactive and MT1-MMP act inh RFP 1.
`CCc1ccc(NC(=O)CNC(=O)c2nn(-c3ccc(OC)cc3)c(=O)c3ccccc23)cc1` gave Env fusion inh 7, eIF4H FP inh 0, MT1-MMP act inh 1, PABP polyA inh 5, UUG fidelity -10, CSC inhib 3, Rce1 inhib inactive and MT1-MMP act inh RFP -3.
`CCOc1ccc(CCNC(=O)COC(=O)CSc2ccc(C)cc2)cc1OCC` gave Env fusion inh 1, MT1-MMP act inh -3, UUG fidelity -3 and MT1-MMP act inh RFP 0.
For CC(=O)Nc1cccc(NC(=O)c2cc(-c3ccccn3)nc3ccc(Cl)cc23)c1 the results were eIF4H FP inh 52, MT1-MMP act inh -1, PABP polyA inh 26*, UUG fidelity -22, CSC inhib -15, Rce1 inhib inactive, eIF4H FP inh retest 25, PABP polyA inh retest 58* and MT1-MMP act inh RFP 4.
COC(=O)CCP(=O)(O)Cc1ccccc1CP(=O)(O)CCC(=O)OC was read as eIF4H FP inh -5, MT1-MMP act inh 5, PABP polyA inh 14, UUG fidelity 0, CSC inhib -14, Rce1 inhib inactive and MT1-MMP act inh RFP 6.
`COc1ccc(/C=N/n2cnc3scc(-c4cccs4)c3c2=O)cc1OC` gave Env fusion inh -23, eIF4H FP inh -3, MT1-MMP act inh -7, PABP polyA inh 40, CSC inhib -7, Rce1 inhib inactive and MT1-MMP act inh RFP -5.
Screening CC(OC(=O)c1ccc2ncsc2c1)C(=O)N1CCCC1 (stereo not given) returned Env fusion inh 21, eIF4H FP inh 1, PABP polyA inh inconclusive, CSC inhib -3 and Rce1 inhib inactive.
`O=C(Nc1ccc(S(=O)(=O)N2CCCC2)cc1)C1COc2ccccc2O1` (stereo not given) gave Env fusion inh -32, eIF4H FP inh 4, MT1-MMP act inh -1, PABP polyA inh 16, UUG fidelity -25, CSC inhib 3, Rce1 inhib inactive and MT1-MMP act inh RFP 1.

Compound activity from PubChem BioAssay.

Only part of the results is shown. The share of hits here may be higher or lower than overall.
